Assay outcomes as filed in PubChem.
D2 ag – agonists of human D2 dopamine receptor (beta-arrestin). DiscoveRx PathHunter D2 beta-arrestin, luminescence, 90 min; 100% = 57 uM dopamine signal. actives 0.084% (n = 360,000). activation, % (test concentration not listed). AID 624465; in the data active = activation above about 40%; inconclusive = about 15% to 40%; inactive = below about 15%; note: compound concentration not given in the record; the text of the record calls up to 30% inactive
Target sequence (P14416 whole entry, looked up): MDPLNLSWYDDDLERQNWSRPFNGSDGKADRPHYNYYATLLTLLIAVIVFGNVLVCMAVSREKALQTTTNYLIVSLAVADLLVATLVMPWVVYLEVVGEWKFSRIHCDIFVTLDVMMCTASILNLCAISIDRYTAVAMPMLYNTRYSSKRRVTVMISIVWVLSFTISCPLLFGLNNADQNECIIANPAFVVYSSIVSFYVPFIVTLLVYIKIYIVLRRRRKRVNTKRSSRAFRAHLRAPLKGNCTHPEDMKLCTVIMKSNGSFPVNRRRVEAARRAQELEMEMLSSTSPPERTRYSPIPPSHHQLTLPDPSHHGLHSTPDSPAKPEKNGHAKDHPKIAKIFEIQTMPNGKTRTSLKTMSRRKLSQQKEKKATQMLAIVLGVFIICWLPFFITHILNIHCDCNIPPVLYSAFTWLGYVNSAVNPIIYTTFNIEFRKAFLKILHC
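DiscoveRx PathHunter D2 beta-arrestin cells (2,100/well) attached overnight, then compound-stimulated 90 min at 37 C in HBSS/10 mM HEPES/0.1% Tween-20 buffer; beta-galactosidase complementation read by luminescence after 1 h at ambient temperature. Dopamine 57 uM final (EC100) as control.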
gsp antagonist – gsp mutant antagonism; gsp-mutant cells, cAMP HTRF, 30 min; control for the full effect not named in the record; actives 0.4% (n = 340,000); Potency, µM (series often up to 76.9 µM), for the others: at the top dose activity change, negative = inhibition, most hits filed as inhibitors; active = falling curve of any shape with a large fitted effect; inconclusive = falling curve, mostly with a smaller effect; inactive = flat or rising curve; cell line not stated here;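 note: intracellular cAMP measured with PDE inhibitor Ro 20-1724 present during compound exposure; potency is the fitted concentration of half-maximal effect; % is set by controls: 0 for no effect and ±100 for the full control effect; nearly all actives have a fitted effect of over 65% in size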
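HTRF cAMP read-out (cAMP-d2 plus anti-cAMP antibody-K in lysis buffer, 30 min RT). Before lysis, cells are exposed to compounds with […] for 30 min at 37C in DPBS containing Ca/Mg, BSA and Tween 20.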
Menin MLL FP FL – displaces fluorescein MLL peptide from human menin; AID 1766; FP activity change, % at 61.4 µM; Fluorescence polarization, fluorescein-MLL peptide displacement from menin; 290,000 tested, under 10 active; inconclusive = falling polarisation curve, or a change in total fluorescence; inactive = total fluorescence flat and polarisation flat or rising; no compound was filed as active; the % refers to the polarisation; negative = inhibition;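 note: % of control where 0% means no effect; inhibitors lower the polarisation; unlabelled MLL peptide was the positive control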
ClpP mod – qHTS Assay for Activators of ClpP | actives 1.9% (n = 340,000) | ATP-dependent Clp protease proteolytic subunit (Bacillus subtilis (strain 168)), P80244 | purified B. subtilis ClpP, FRET peptide cleavage, 20 min | Potency, µM (doses to about 57.5 µM), inactives show top-dose activity change, negative = active | AID 651965, 2013; active = well fitted falling curve with a large enough effect; inconclusive = small, poorly fitted or top-dose-only effect; inactive = no such curve, though single readings can be large or run the other way; note: potency is the fitted concentration of half-maximal effect; the source files actives as falling curves though it sought activators and does not explain the sign; nearly all actives have a fitted effect of over 65% in size; many hits overshoot -100%
Target sequence (P80244 whole entry, looked up): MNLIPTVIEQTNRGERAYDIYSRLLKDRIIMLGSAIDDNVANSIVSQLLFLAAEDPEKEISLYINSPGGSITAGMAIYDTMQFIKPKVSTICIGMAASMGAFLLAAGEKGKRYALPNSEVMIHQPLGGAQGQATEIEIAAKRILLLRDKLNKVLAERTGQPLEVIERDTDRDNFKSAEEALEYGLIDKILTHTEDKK
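FRET quenching reversal measured ClpP activation: 10 microg/mL B. subtilis ClpP at pH 8 with the FRET-FV decapeptide, read at 430 nm after 320 nm excitation. The 20-min minus 0-min signal was scaled between DMSO/no-enzyme wells and ADEP (5.8 microM final).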
Sfp inh – inhibitors of Bacillus subtilis Sfp phosphopantetheinyl transferase; AID 1490; actives 3.5% (n = 310,000); Q9F4F7; Potency, µM, for the others: max response, negative = inhibition, usual class: inhibitors; Biochemical Sfp PPTase activity, qHTS; active = well fitted inhibition curve with a large enough effect; inconclusive = small, poorly fitted or top-dose-only effect, or another doubt; inactive = no such curve, though single readings can be large or run the other way;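 note: the enzyme is Sfp with the accession as filed and its product quenches rhodamine fluorescence; potency is the fitted concentration of half-maximal effect; 0% = enzyme reaction without inhibitor and -100% = no enzyme wells; top concentration of the series not given in the record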
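Buffer: 50 mM Hepes-Na pH 7.6, 10 mM MgCl2, 0.01% Nonidet P-40, 0.01% BSA. Enzyme 15 nM, pre-exposed to compound 15 min; substrates then added and fluorescence change tracked over 30 min.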
PINK1 expr mod – changes PINK1 expression | PINK1 immunofluorescence, high-content cytometry, 24 h | Potency, µM (doses to about 76.6 µM), inactives show top-dose activation (PINK1 increase), usual class: activators | actives 0.2% (n = 410,000) | AID 624263; active = well fitted activation curve with a large enough effect; inconclusive = small, poorly fitted or top-dose-only effect; inactive = flat fitted curve, though single readings scatter; cell line not stated here;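 note: potency is the fitted concentration of half-maximal effect; % of control where 0% means no effect; nearly all actives have a fitted effect of over 65% in size; a mitochondrial uncoupler was the plate control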
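A stable cell line was treated with compounds at 5 concentrations for 24 hours, with CCCP as control. PINK1 levels and mitochondrial localization were measured by immunofluorescence with mitochondrial, cell and nuclear markers after fixation, read by laser-scanning cytometry.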
gsp agonist – agonists of gsp mutant (McCune-Albright syndrome) | gsp mutant cells, cAMP HTRF, 30 min; control for the full effect not named in the record | actives 0.13% (n = 340,000) | Potency, µM (highest dose often 76.9 µM), for inactives: at the highest dose activation (cAMP increase), most hits filed as activators; active = well fitted activation curve with a large enough effect; inconclusive = small, poorly fitted or top-dose-only effect, or another doubt; inactive = no such curve, though single readings can be large or run the other way; cell line not stated here;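 note: phosphodiesterase inhibitor Ro 20-1724 added with compounds to block cAMP breakdown; potency is the fitted concentration of half-maximal effect; nearly all actives have a fitted effect of over 60% in size; about a fifth of the inactives were tested at one dose only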
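Cells stably selected in G418 were plated at 2000/well, grown 16-24 hr, then given compounds in DMSO with the PDE inhibitor […] (300 uM solution added) for 30 min at 37C; cAMP was read by HTRF.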
Numbers without * were called inactive; ? = inconclusive; / = not tested or not shown; & = joins results of further samples; [ ] = dose if it differs, or a comment.

molecule,D2 ag,gsp antagonist,Menin MLL FP FL,ClpP mod,Sfp inh,PINK1 expr mod,gsp agonist
COc1ccc(C(=O)C[n+]2ccc(-c3nnc4n3CCC4)cc2)cc1,-1.8,4%,-0.3,-29%,18%,-1.1%,16%
COc1ccc(S(=O)(=O)N2CCCCCC2)cc1C(=O)Nc1cc(C)ccn1,-3.3,-15%,/,-7.4%,/,0.9%,1%
COc1cccc(/C=N/Nc2ccccc2C(=O)O)c1O,2.9,?,2.5,-1.4%,-1%,-0.5%,?
COc1ccc(OC)c(S(=O)(=O)N2CCN(C34CC5CC(CC(C5)C3)C4)CC2)c1,-5.4,2%,0.0,-0.7%,1%,1.4%,22%
COc1cccc(NC(=O)c2cccc(C(=O)Nc3cccc(OC)c3)n2)c1,-9.9,15%,/,274%,9%,?,22%
CC1CCCCN1C(=O)c1ccc(C(=O)N2CCCCC2C)cc1 (stereo not drawn),-2.1,11%,0.3,3.1%,7%,6.1%[38.3 µM],-18%
CC1CC(C)CN(C(=O)COC(=O)c2ccc(N3CCCC3=O)cc2)C1 (stereo not drawn),3.6,-3%,/,-1.6%,/,9.6%,-5%
O=C1CCC(Cc2ccccc2)N1 (stereo not drawn),0.1,-1%,-1.5,-2.0%,13%,0.1%[38.3 µM],-10%
Cc1cccc(NC(=O)c2ccc(CN3CCc4ccccc4C3)cc2)c1C,-2.4,2%,2.8,/,5%,2.7%,-30%[inhibitor]
CCCc1cc(C(=O)NCC(C)C)no1,-3.6,11%,-3.3,-3.5%,19%,0.1%,-104%[inhibitor]
CCOc1cccc2cc(C(=O)NCc3ccc(F)cc3)c(=N)oc12,-0.8,-2%,5.3,-9.5%,-4%,5.8%,-2%
CC(=O)c1ccc(NS(=O)(=O)c2ccc(C)cc2)cc1,-1.0,4%,0.7,?,-2%,-0.1%,-20%
CC1CCCN(CCSc2ccc(Cl)cc2)C1 (stereo not drawn),-3.3,3%,0.9,1.9%,5%,7.2%,29%
CC(C)c1ccc(/C=C2\CC/C(=C\C=N\N(C)C)C2=O)cc1,-1.0,12%,?,-11%,79µM*,6.8%,-76%[inhibitor]
Cc1ccc2c(c1)N(CCCC(=O)NCC1COc3ccccc3O1)C(=O)CO2 (stereo not drawn),-2.0,-10%,1.4,-1.3%,3%,1.7%[38.3 µM],-39%[inhibitor]
COc1ccc(-c2cnc(N)nc2-c2ccc(OCc3ccccc3)cc2O)cc1,3.2,?,1.7,/,6%,2.4%,-11%[15.4 µM]
Cc1cccc(-c2nnc(SCC(=O)NC3CCCC3)o2)c1,-2.2,10%,-5.7,/,7%,1.5%,-15%
O=C(NCCc1ccc(Cl)cc1)c1ccc2c(c1)OCO2,-2.6,-3%,-3.2,-5.0%,19%,-1.1%,-66%[inhibitor]
CCOC(=O)C1CCCN(Cc2cc(Br)ccc2OC)C1 (stereo not drawn),0.1,15%,-0.8,0.2%,?,3.3%,?
COc1cc(C(=O)OCC(=O)Nc2ccc(S(=O)(=O)N3CCCC3)cc2)cc(OC)c1OC,3.2,-15%,/,/,/,3.3%,11%
CC(C)(C)n1nnnc1C(c1cccs1)N(Cc1cccnc1)CC1CCCO1 (stereo not drawn),-0.9,-6%,3.2,1.1%,2%,-2.0%,4%
O=C(CN1CCN(c2ccc(O)cc2)CC1)Nc1ccc2c(c1)OCCCO2,6.8,-17%,/,-3.0%,/,4.6%,11%
O=C(Nc1ccccc1F)C1CCN(S(=O)(=O)c2cccnc2)CC1,-0.2,9%,/,0.9%,8%,0.3%,?
COC(=O)c1cc(NC(=O)c2cc(-c3ccc(Cl)cc3)oc2C(F)(F)F)ccc1N1CCOCC1,-3.0,-1%,2.4,-2.1%,15%,14%,3%[15.4 µM]
CC(C)(C)Nc1nc(Cl)nc(Nc2ccccc2)n1,-0.9,-18%,3.9,1.2%,-5%,1.0%,-7%[15.4 µM]
COc1ccc(NC(=O)CN(C)C(=O)c2ccc(NS(=O)(=O)c3ccc4[nH]c(=O)[nH]c4c3)cc2)cc1,0.7,4%,/,1.2%,/,-2.4%,-22%
CCOC(=O)c1c(NC(=O)NC(C)(C)C)sc2c1CCN(C)C2,1.1,-3%,0.8,1.3%,16%,0.5%,13%[15.4 µM]
Cc1ccc2oc(-c3cccc(NC(=O)c4ccc(Br)o4)c3C)nc2c1,-3.5,-4%,0.1,-12%,20%,1.2%,11%
CCOC(=O)C1CCCN(C/C(O)=C(\C#N)c2nc(-c3ccc(Cl)cc3)cs2)C1 (stereo not drawn),-1.0,?,5.2,0.3%,18%,0.0%[38.3 µM],17%
Cn1c(-c2ccccc2)cnc1NCc1cc(Cl)ccc1O,-1.0,0%,-2.2,-1.0%,-18%,2.5%,8%[15.4 µM]
Cc1[nH]n(-c2ccccc2)c(=O)c1C=Nc1ccc2[nH]c(=O)[nH]c2c1,-4.0,7%,?,-3.0%,10%,35µM*,-25%
COc1cccc(C(=O)Nc2nc(-c3ccccc3)c(-c3ccccc3)o2)c1,-0.6,-18%,2.6,-22%,27%,4.6%,-28%
CC(C)S(=O)(=O)c1csc(C(=O)NNC(=O)Nc2ccccc2)c1Cl,-5.7,-16%,/,1.5%,-1%,-0.7%,1%[15.4 µM]
COc1cccc(NC(=O)CN(C)C(=O)CCCc2c[nH]c3ccccc23)c1,-4.3,-3%,/,-4.4%,/,-0.8%,?
Cc1ccc(C)c(NC(=O)CCC(=O)OC(C(=O)c2ccccc2)c2ccccc2)c1 (stereo not drawn),-1.7,3%,-1.1,-0.9%,26%,-1.3%,19%
CCOC(=O)C1CCN(C(=O)c2ccc3c(=O)n4nc(Nc5cc(C)ccc5C)sc4nc3c2)CC1,-2.3,?,/,-13%&-28%,2%,0.1%&3.2%,-18%
CC(=O)c1cccc(NC(=O)Oc2ccccc2)c1,-1.7,3%,2.5,-0.5%,19%,/,-2%
Cn1c(=O)cc(SCC(=O)N2CCN(Cc3ccc4c(c3)OCO4)CC2)c2ccccc21,5.6,?,0.8,-6.1%,-6%,2.4%,?
CC(=O)c1cccc(NC(=O)C2CCCN(S(=O)(=O)c3ccc(F)cc3)C2)c1 (stereo not drawn),-2.9,-17%,0.6,-2.3%,-11%,0.5%,2%
O=C(/C=C/c1cccs1)N1CCC2(CC1)Oc1ccc(Cl)cc1C(=O)C21CC(c2cccnc2)=NO1 (stereo not drawn),4.3,-24%,1.1,-0.8%,-2%,2.7%,/
CC(=O)Nc1ccccc1NC(=O)c1cc(C)cc(C)c1,-3.0,/,0.0,/,19%,-2.1%,6%[15.4 µM]
COc1ccc(NC(=O)CSc2nc(N)c3cc4c(nc3n2)CC(C)(C)OC4)cc1,-3.0,8%,16,/,0%,4.2%,0%[15.4 µM]
CCOc1cccc(C(=O)N2CCCCC2c2cccnc2)c1 (stereo not drawn),-2.2,10%,1.3,-0.5%,-13%,-2.5%,?
COc1ccc(S(=O)(=O)Nc2cccc3c2O[C@H](CN(C)CC2CCCCC2)[C@@H](C)CN([C@H](C)CO)C3=O)cc1,-1.6,-8%,/,-2.6%,/,-0.1%,/
CN(C)CCC(=O)NCC1OCCc2ccccc21 (stereo not drawn),-2.5,10%,0.1,2.1%,-3%,0.9%,?
COc1ccccc1-c1nnc(SCC(=O)NC2CCCCC2)n1N,-2.8,8%,/,2.5%,/,-0.7%,-1%[15.4 µM]
Cc1cc(C)c(NC(=O)c2ccoc2C)c(C)c1,-1.4,-7%,-0.3,0.8%,1%,1.2%,3%
CCOC(=O)N1CCN(C(=O)C(=O)Nc2sc3c(c2C(N)=O)CC(C)(C)OC3)CC1,-0.8,-1%,/,-0.7%,-25%,-0.8%,0%
CC(Sc1nnc(-c2cccnc2)n1-c1ccccc1)C(=O)NCc1ccc2c(c1)OCO2 (stereo not drawn),-2.1,-19%,-1.4,-1.6%,13%,0.6%[38.3 µM],-2%
Cc1ccc(-n2c(N)cc(=O)nc2SCC(=O)N2CCN(c3ccccc3)CC2)cc1,8.7,-2%,1.0,0.2%,2%,0.4%,?

The list goes on.
molecule,D2 ag,gsp antagonist,Menin MLL FP FL,ClpP mod,Sfp inh,PINK1 expr mod,gsp agonist
COc1cccc(-c2nc(NCc3ccccc3OC)c3ccccc3n2)c1,/,/,-2.0,/,1%,2.0%,/
COc1ccc(C(C)C)cc1S(=O)(=O)N1CCN(C)CC1,-2.3,-7%,-2.8,-1.4%,2%,-2.1%,4%
CCOc1ccc(NC(=O)COc2ccc(OC)cc2)cc1,-0.8,-5%,2.5,0.0%,9%,-0.8%,-6%
O=C(CCCSc1nc2ccccc2[nH]1)Nc1nnc(-c2ccccc2)o1,-1.1,-22%,7.3,-8.6%,4%,-1.3%[38.3 µM],-11%
N#Cc1c(NC(=O)CN2CCOCC2)oc(-c2ccccc2)c1-c1ccccc1,-3.8,-18%,-0.9,-9.2%,-6%,-2.1%,8%
CCc1ccc(C2N(c3ccc(OC)cc3)C(=O)C3CCCN32)cc1 (stereo not drawn),-2.1,-1%,-0.1,-2.8%,2%,-0.7%,-15%
COc1ccc(-c2cc(C(=O)N3CCc4ccccc4C3)no2)cc1OC,3.5,-15%,6.8,-8.2%,-28%,2.9%[38.3 µM],-5%
COC(=O)c1cc(NC(=O)c2cccc([N+](=O)[O-])c2C)ccc1Cl,-1.6,-17%,0.8,/,10%,-1.9%,3%
COc1ccccc1CNC(=O)C(C)NS(=O)(=O)c1ccc(Br)cc1 (stereo not drawn),-4.3,-11%,0.8,-12%,12%,-1.1%,8%
CCC(C)(C(=O)NC1CCCC1)N(Cc1ccco1)C(=O)c1ccc2c(c1)OCO2 (stereo not drawn),-1.2,9%,-2.4,-2.6%,10%,-1.9%[38.3 µM],-3%

Rows were taken by chance; overall some 5.1% were active at least once.
